Screening results deposited in PubChem BioAssay by National Center for Advancing Translational Sciences (NCATS).
TRPV1 potentiator: enhances activation of the human vanilloid receptor TRPV1; TRPV1-expressing cells, Fluo-8 calcium influx, capsaicin EC20 potentiation; host cell line not named in the record; control for the full effect not named in the record; potentiation, % at 8.33 µM; 320,000 tested, 0.02% active; AID 540277; active means potentiation above 80%; inconclusive means 30% to 80%; inactive means below 30%; further: 0% is about no effect
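Cells expressing TRPV1 were dye-loaded with Fluo-8 and read kinetically: 10 s baseline, 3 min after compound (agonist portion), then 2 min after EC20 capsaicin (allosteric enhancer portion). Calcium-bound dye fluorescence at 480/520 nm.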
gsp antag: antagonizes gsp, the McCune-Albright syndrome mutation; gsp-mutant cells, cAMP HTRF, 30 min; control for the full effect not named in the record; Potency, µM (highest dose often 76.9 µM), without a hit: top-dose activity change, negative = inhibition, hits mostly inhibitors; 340,000 tested, 0.4% active; active = falling curve of any shape with a large fitted effect; inconclusive = falling curve, mostly with a smaller effect; inactive = flat or rising curve; cell line not stated here;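 further: intracellular cAMP measured with PDE inhibitor Ro 20-1724 present during compound exposure; potency means the concentration at half of the fitted maximal effect; on the % scale 0 is the no-effect control and ±100 the full control effect; nearly all actives have a fitted effect of over 65% in size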
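HTRF cAMP measurement after 30 min RT detection following 30 min, 37C compound treatment alongside […] (added as 300 uM solution) in G418-selected cells seeded at 2000/well and grown 16–24 h.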
TRPML1 blocker: blocks the human TRPML1 channel. 390,000 tested, 0.02% active. TRPML1-inducible cells, Ca2+ dye fluorescence, FDSS; active compounds read low; inhibition of EC80 agonist-evoked calcium signal. activity change, negative = inhibition, % (test concentration not listed); in the data active means activity change below about -50%; inconclusive means about -30% to -50%; inactive means above about -30%;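 further: stimulus is agonist 54-4 at its EC80 concentration; on the % scale 0 is the no-effect control and ±100 the full control effect; compound concentration not given in the record; the text of the record puts the active cut at -80%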
Target sequence (Q9GZU1 whole entry, looked up): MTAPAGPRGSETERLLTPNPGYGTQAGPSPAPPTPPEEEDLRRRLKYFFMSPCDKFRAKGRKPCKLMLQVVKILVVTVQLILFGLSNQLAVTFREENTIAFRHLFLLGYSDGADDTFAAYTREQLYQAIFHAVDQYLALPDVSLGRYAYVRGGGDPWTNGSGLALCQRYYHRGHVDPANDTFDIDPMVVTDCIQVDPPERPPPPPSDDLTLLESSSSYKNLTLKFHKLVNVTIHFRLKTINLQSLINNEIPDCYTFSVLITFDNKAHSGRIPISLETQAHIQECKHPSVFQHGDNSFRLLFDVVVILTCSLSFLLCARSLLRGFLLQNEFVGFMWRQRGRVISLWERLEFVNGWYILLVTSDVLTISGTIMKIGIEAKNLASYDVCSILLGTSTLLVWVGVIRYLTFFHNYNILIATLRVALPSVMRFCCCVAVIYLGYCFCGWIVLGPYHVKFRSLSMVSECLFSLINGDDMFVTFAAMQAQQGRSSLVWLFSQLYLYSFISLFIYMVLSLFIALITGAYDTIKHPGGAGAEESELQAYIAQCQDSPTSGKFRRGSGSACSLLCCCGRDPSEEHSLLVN
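Tet-induced TRPML1-DL cells loaded with Ca8 no-wash calcium dye were read kinetically on FDSS. Compound addition was followed by EC80 agonist 54-4 (4 uM final); inhibition was read over 110 s.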
Menin-MLL FL inh: inhibitors of human menin-MLL interaction, wild-type MLL peptide; Fluorescence polarization, fluorescein-MLL peptide displacement from menin; FP activity change, % at 61.4 µM; 290,000 tested, under 10 active; inconclusive = falling polarisation curve, or a change in total fluorescence; inactive = total fluorescence flat and polarisation flat or rising; no compound was filed as active; the % refers to the polarisation; negative = inhibition;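 further: % of control where 0% means no effect; inhibitors lower the polarisation; unlabelled MLL peptide was the positive control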
ClpP mod: qHTS Assay for Activators of ClpP; ATP-dependent Clp protease proteolytic subunit (Bacillus subtilis (strain 168)), P80244; purified B. subtilis ClpP, FRET peptide cleavage, 20 min; Potency, µM (top dose mostly 57.5 µM), inactives show at the highest dose activity change, negative = active; 340,000 tested, 1.9% active; active = well fitted falling curve with a large enough effect; inconclusive = small, poorly fitted or top-dose-only effect; inactive = no such curve, though single readings can be large or run the other way; further: potency means the concentration at half of the fitted maximal effect; the source files actives as falling curves though it sought activators and does not explain the sign; nearly all actives have a fitted effect of over 65% in size; many hits overshoot -100%
Target sequence (P80244 whole entry, looked up): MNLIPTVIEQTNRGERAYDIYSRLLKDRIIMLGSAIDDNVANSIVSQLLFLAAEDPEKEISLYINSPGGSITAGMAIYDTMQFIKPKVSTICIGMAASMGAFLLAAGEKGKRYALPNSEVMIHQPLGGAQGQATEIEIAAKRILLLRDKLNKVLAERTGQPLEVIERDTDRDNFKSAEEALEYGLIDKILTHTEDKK
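Purified B. subtilis ClpP, 10 microg/mL final in Tris/HCl pH8 with KCl, BSA, glycerol and Tween-20, cleaved an Abz/nitrotyrosine-quenched decapeptide. Fluorescence (ex 320, em 430) was read at 0 and 20 min at room temperature. Delta was normalized to 5.8 microM ADEP and DMSO/no-enzyme controls.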
Sfp inh: inhibitors of Bacillus subtilis Sfp phosphopantetheinyl transferase | Q9F4F7 | 310,000 tested, 3.5% active | Potency, µM, for inactives: max response, negative = inhibition, actives largely listed as inhibitors | Biochemical Sfp PPTase activity, qHTS; active means well fitted inhibition curve with a large enough effect; inconclusive means small, poorly fitted or top-dose-only effect, or another doubt; inactive means no such curve, though single readings can be large or run the other way;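 further: the enzyme is Sfp with the accession as filed and its product quenches rhodamine fluorescence; potency means the concentration at half of the fitted maximal effect; 0% = enzyme reaction without inhibitor and -100% = no enzyme wells; top concentration of the series not given in the record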
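Fluorescence-quenching assay: 15 nM Sfp-PPTase preincubated 15 min at room temperature with compound, then 5 uM rhodamine-CoA and 12.5 uM BHQ-2-labelled YbbR peptide added. Fluorescence (ex 525/em 598 nm) read at start and after 30 min; difference gives rate.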
gsp agonist: gsp mutant agonism; gsp mutant cells, cAMP HTRF, 30 min; control for the full effect not named in the record; Potency, µM (titrated, usually from 76.9 µM), for inactives: at the top dose activation (cAMP increase), actives largely listed as activators; 340,000 tested, 0.13% active; AID 624287; active = well fitted activation curve with a large enough effect; inconclusive = small, poorly fitted or top-dose-only effect, or another doubt; inactive = no such curve, though single readings can be large or run the other way; cell line not stated here;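 further: phosphodiesterase inhibitor Ro 20-1724 added with compounds to block cAMP breakdown; potency means the concentration at half of the fitted maximal effect; nearly all actives have a fitted effect of over 60% in size; about a fifth of the inactives were tested at one dose only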
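Cells stably selected in G418 were plated at 2000/well, grown 16-24 hr, then given compounds in DMSO with the PDE inhibitor […] (300 uM solution added) for 30 min at 37C; cAMP was read by HTRF.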
Numbers without * were called inactive; ? = inconclusive; . = no result given; [ ] = another dose, or the depositor's remark.

Each structure is followed by: gsp agonist	ClpP mod	Sfp inh	TRPML1 blocker	TRPV1 potentiator	gsp antag	Menin-MLL FL inh
CN1CCN(/N=C/c2ccc(-c3ccc([N+](=O)[O-])cc3Cl)o2)CC1
 : 19%[15.4 µM]	.	-5%	14	3	4%	?
Cc1ccc(S(=O)(=O)N2[C@@H](c3ccccc3F)C(C(=O)O)=CC[C@H]2c2ccc(Cl)cc2)cc1
 : 0%	-0.3%	.	13	?	-15%	.
Cc1c(-c2ccn[nH]2)cc(NC(=O)c2ccc(Cl)cc2)c(=O)n1N
 : 28%[15.4 µM]	.	2%	0	0	-9%	-0.7
Cc1oc(C(=O)O)cc1CSCc1cc(C(=O)O)c(C)o1
 : ?	-7.3%	20µM*	-11	2	3%	-2.7
Cc1c(Cl)cccc1-n1c(SCC(=O)NCc2cccs2)nnc1-c1ccncc1
 : -12%	-2.7%	-15%	16	3	-3%	4.4
Cc1ccccc1CN1CCNC(=O)C1CC(=O)NC1CCCCCCC1 (configuration not stated)
 : -21%	-6.3%	-13%	-4	6	3%	0.9
COc1ccc(NC(=O)CSCC(=O)Nc2sccc2C#N)cc1
 : 2%	-4.3%	.	6	7	-13%	.
COCCn1c(SCC(=O)NCc2ccco2)nc2cccnc21
 : 12%	-0.4%	-2%	-2	1	3%	1.3
CC(=O)Oc1ccc2c(=O)oc(-c3ccccc3)nc2c1
 : -28%	.	7%	-13	5	-2%	4.7
O=C(N/N=C/c1ccoc1)c1cc(Br)ccc1O
 : 1%	-6.9%	6%	-3	12	-18%	8.9
CN(C)c1nc(N2CCOCC2)nc(N(c2ccccc2)c2ccccc2)n1
 : 28%	0.7%	-6%	-9	-12	-7%	1.5
Cc1cccc(NC(=O)Nc2ccccc2)n1
 : -27%	.	10%	20	-13	26%	2.0
C/C(=N\NC(=O)C(O)c1ccccc1)c1ccc(C)s1 (configuration not stated)
 : 12%[15.4 µM]	1.7%	.	3	.	-12%	.
CN(CC(=O)NCc1ccc(F)cc1)CC(=O)Nc1ccc(Cl)c(C(F)(F)F)c1
 : 21%	0.2%	1%	1	-5	?	.
CC(OC(=O)c1ccc(Cl)cc1)C(=O)NCc1ccc2c(c1)OCO2 (configuration not stated)
 : -56%[inhibitor]	-0.4%	.	24	-9	7%	.
Cc1ccc(C(=O)Nc2nc3ccc(S(C)(=O)=O)cc3s2)cc1C
 : ?	.	7%	4	-1	2%	8.6
COC(=O)CC1=NN(c2ccccc2)C(=O)/C1=C\c1ccc(OC)cc1
 : 6%	2.7%	8%	17	5	-4%	7.0
CCCCOc1ccc(C(O)C(CN2CCOCC2)c2ccccc2)cc1 (configuration not stated)
 : 2%	0.3%	23%	9	5	11%	2.7
COc1ccc(C(=O)Nc2ccc(Br)cn2)cc1S(=O)(=O)N1CCOCC1
 : ?	1.5%	.	-6	-2	1%	.
CN(C)c1ccc(NC(=O)C(=O)NCCOc2ccccc2)cc1
 : -17%[15.4 µM]	.	15%	1	12	15%	0.0

Shown as a hit in Sfp inh, of those listed so far:
SMILES,gsp agonist,Sfp inh,TRPML1 blocker,Menin-MLL FL inh
Cc1oc(C(=O)O)cc1CSCc1cc(C(=O)O)c(C)o1,?,20µM*,-11,-2.7

Further compounds follow:
Each structure is followed by: gsp agonist	ClpP mod	Sfp inh	TRPML1 blocker	TRPV1 potentiator	gsp antag	Menin-MLL FL inh
Cc1ccccc1NC(=S)NCC1CCN(C(C)c2ccccc2)C1 (configuration not stated)
 : 1%	-0.4%	20%	-1	-28	-2%	-1.2
CCCn1nnnc1SCC(=O)Nc1ccc(F)cc1
 : -28%	-0.6%	7%	9	-10	14%	-0.6
C=CCOc1ccc(C[C@H](N)C(=O)NC[C@H]2O[C@@H](n3cnc4c(N)ncnc43)[C@H](O)[C@@H]2O)cc1
 : .	1.1%	.	33	.	16%	.
O=C1C2C3C=CC(C4CC34)C2C(=O)N1c1cccc2ccccc12 (configuration not stated)
 : 5%	-0.7%	-8%	-5	-2	10%	0.7
CCOC(=O)c1ccccc1NC(=O)CSc1nc(N)cc(N)n1
 : 7%	-3.7%	9%	8	1	-1%	6.2
Cc1cccc(NC(=O)c2cc3ccccc3o2)c1
 : -24%	-0.9%	?	1	-15	-5%	1.4
Cc1noc(C)c1COc1ccccc1C(=O)N1CCN(S(=O)(=O)c2cccc(Cl)c2)CC1
 : 1%	0.7%	.	12	-13	-3%	.
COc1cc(OC)c(S(=O)(=O)NC(C)C)cc1S(=O)(=O)NC(C)C
 : 2%	.	6%	-4	-1	9%	0.0
Cc1ccc(OCC(=O)Nc2cc(S(=O)(=O)N3CCOCC3)ccc2Cl)c([N+](=O)[O-])n1
 : 15%[15.4 µM]	.	14%	-11	-1	-3%	-1.9
O=C1CCCc2[nH]c(-c3ccccc3)nc21
 : -19%	.	-2%	-10	13	6%	7.5
O=c1c2ccccc2nc(-c2ccco2)n1/N=C/c1ccccc1O
 : -31%[inhibitor]	1.3%	24%	-26	-19	-2%	0.7
O=C(NNC(=O)C1CCN(S(=O)(=O)c2ccc(Cl)cc2)CC1)c1ccncc1
 : 6%[15.4 µM]	.	15%	-20	1	2%	4.3
CCn1c(COc2ccc(Cl)cc2)nnc1SC1CCc2ccccc2C1=O (configuration not stated)
 : -17%	1.0%	-10%	8	12	?	-3.5
CC(C)CCn1c(CN2CC(C)OC(C)C2)nc2c1c(=O)n(C)c(=O)n2C (configuration not stated)
 : 4%	-1.2%	-1%	-6	-15	-2%	-8.9
O=C(NC1CC(=O)N(c2cccc(F)c2)C1)C(=O)c1c[nH]c2ccccc12 (configuration not stated)
 : 1%	?	.	-8	-4	7%	.
Nc1ccccc1C(=O)NC12CC3CC(CC(C3)C1)C2
 : 8%	4.0%	6%	.	?	11%	1.1
O=C(NC1CCN(Cc2ccccc2)CC1)c1ccc2c(c1)OCCCO2
 : -7%	1.3%	7%	2	-40	1%	-0.2
O=C(CSc1ncnc2ccccc12)Nc1ccc2c(c1)OCCO2
 : 1%[15.4 µM]	.	16%	26	1	-13%	-1.9
CCN(CC(=O)Nc1ccc2c(c1)OCCO2)C(=O)/C=C/c1ccc(OC)c(OC)c1
 : 12%	-17%	.	8	7	9%	.
O=C(COc1ccc(Cl)cc1Cl)NNC(=O)c1cccnc1
 : -4%	.	12%	-5	12	6%	.

Of the compounds above, these have an NH in an aromatic ring:
Each structure is followed by: gsp agonist	ClpP mod	Sfp inh	TRPML1 blocker	TRPV1 potentiator	gsp antag	Menin-MLL FL inh
Cc1c(-c2ccn[nH]2)cc(NC(=O)c2ccc(Cl)cc2)c(=O)n1N
 : 28%[15.4 µM]	.	2%	0	0	-9%	-0.7
O=C1CCCc2[nH]c(-c3ccccc3)nc21
 : -19%	.	-2%	-10	13	6%	7.5
O=C(NC1CC(=O)N(c2cccc(F)c2)C1)C(=O)c1c[nH]c2ccccc12 (configuration not stated)
 : 1%	?	.	-8	-4	7%	.

(list continues)
Each structure is followed by: gsp agonist	ClpP mod	Sfp inh	TRPML1 blocker	TRPV1 potentiator	gsp antag	Menin-MLL FL inh
Cc1ccccc1[C@@]1(C)ON(c2ccccc2C(F)(F)F)C1=O
 : 19%	-2.8%	.	0	-19	5%	.
C[C@@H]1NC(=O)[C@H](CCC(=O)O)NC(=O)c2cc([N+](=O)[O-])cc(F)c2NCCC[C@@H](C(N)=O)NC1=O
 : 0%	-0.4%	7%	3	5	10%	-0.1
COc1ccccc1CNC(=O)[C@@H]1CCCN1C(=O)[C@@H]1Cc2ccccc2CN1C(=O)OC(C)(C)C
 : -4%	.	9%	20	-4	-20%	.
Cc1ccc(C(=O)Nc2ccccc2C(=O)N2CCOCC2)cc1[N+](=O)[O-]
 : -23%	1.2%	10%	-12	1	15%	5.6
Cc1nc2ccccc2nc1OCC(=O)N1CCN(c2ccccc2)CC1
 : 4%	-18%	-11%	-1	-1	-8%	-2.8
CCOC(=O)C1C(C(=O)OCC)C1(c1ccccc1)c1ccccc1 (configuration not stated)
 : 15%	-0.6%	-2%	1	-24	5%	8.8
Cc1cc(C(=O)COc2ccc([N+](=O)[O-])cc2)c(C)n1C1CC1
 : -2%[15.4 µM]	.	-5%	-8	-30	-7%	4.0
CCC(NC(=O)Nc1ncccc1C)(C(F)(F)F)C(F)(F)F
 : 1%	-0.6%	0%	-30	4	-1%	-0.8
CC1(CSc2ccccc2)CC(=O)N1 (configuration not stated)
 : -19%	1.4%	.	-6	.	.	.
CCC(C(=O)N1CCN(c2ncccn2)CC1)c1ccccc1 (configuration not stated)
 : ?	-8.6%	19%	.	-2	1%	1.4
CSc1ccccc1NC(=O)CN(C)C(=O)C(C)SCc1nc2sc(C)c(C)c2c(=O)[nH]1 (configuration not stated)
 : -16%	-2.2%	.	3	.	-16%	.
Fc1ccc(-c2nc3n(n2)Cc2ccccc2-3)cc1
 : 3%	1.2%	6%	-1	-6	-5%	0.4
O=C(CSc1ccccn1)Nc1nncs1
 : -38%[inhibitor]	-0.6%	5%	1	4	9%	-1.1
Cc1occc1C(=O)Nc1cccc([N+](=O)[O-])c1
 : ?	1.0%	8%	1	10	13%	2.7
CN(C)c1nc(N)nc(CSc2nnnn2-c2ccc(C(=O)O)cc2)n1
 : 38%	0.8%	-6%	-2	-4	9%	-3.0
CCc1cccc(CC)c1NC(=O)/C(C#N)=C/c1ccccc1C(F)(F)F
 : 28%	0.8%	12%	-12	6	-10%	-1.1
COCCOc1ccc(C(F)(F)F)cc1NC(=O)c1ccc(C(F)(F)F)cc1
 : -39%[inhibitor]	227%	15%	47	-29	8%	-1.6
COC(=O)[C@@]1(Cc2ccccc2)[C@H]2C(=O)N(Cc3ccccc3)C(=O)[C@H]2[C@H]2CN=C(SC)N21
 : .	1.4%	.	-5	.	6%	.
O=C(NNC(=O)c1cccnc1)Nc1cccc(Cl)c1Cl
 : 7%[15.4 µM]	-16%	11%	37	8	-7%	3.3
